# NPYLR7 ag – agonists of mosquito NPYLR7 receptor, primary screen, cell-based, Aedes aegypti, calcium fluorescence, mosquito biting behavior; Aedes aegypti neuropeptide Y-like receptor 7 (NPYLR7); 0.15% of 270,000 active; activation, % at 10 µM; HEK293T NPYLR7/Galpha15, GCaMP6s calcium fluorescence; in the data active = activation above about 40%;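 also: 0% = vehicle and 100% = reference agonist at the receptor; some compounds past the cut are filed as inactive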
# NPYLR7 ag max-min – recorded beside NPYLR7 ag, whose call it bears; activation, %; measured here: Max-Min RFU normalised activation; some inactives read as strong as hits;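 span of the calcium signal over five minutes; 0% = vehicle and 100% = native peptide agonist; compound fluorescence can raise it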
# * marks the source's active call; other numbers are inactive results; & = joins results of further samples. Not all compounds are listed; count on the stated rates, not on these rows.
SMILES,NPYLR7 ag,NPYLR7 ag max-min
CC1(C)CC2=NN(c3ccccc3)P(=S)(OC3CCCC3)C2=C(N2CCCCC2)C1 (stereo not given),8,15
O=C1NC(=O)N(c2ccc(Cl)cc2)C(=O)/C1=C/c1ccc([N+](=O)[O-])o1,3,0
CCC(=O)c1ccc(OCC(=O)N2C[C@H]3C[C@@H](C2)c2cccc(=O)n2C3)cc1,3,-4
Cc1c(-c2ccc(C=C3C(=O)NC(=S)NC3=O)o2)ccc([N+](=O)[O-])c1C,-9,-14
CN1[C@H]2CC[C@@H]1CN(C(=O)c1ccn[nH]1)CC2,-4,-5
CC(NC(=O)c1cn(Cc2ccc(F)cc2)nn1)c1ccccc1Cl (stereo not given),7,8
CN1CCCC2CN(c3ccc(Br)cn3)CCC21 (stereo not given),4,0
CC1C=CC2([N+](=O)[O-])CN(C)CC1([N+](=O)[O-])C2C (stereo not given),2,2
Cc1ccc(P2(=S)N=C3c4ccccc4CN3c3cc(N(C)C)ccc32)o1 (stereo not given),-5,-11
COc1cc(C(=O)c2cc3cc(Cl)ccc3o2)cc(OC)c1OC,5,1
COc1ccc2c(c1)c(C(=O)N1CCN(C(=O)C3CCCO3)CC1)nn2Cc1ccc(C(=O)N(C)C)cc1 (stereo not given),-2,23
N#CCCN1CC2CC(C1)c1cccc(=O)n1C2 (stereo not given),8,2
Cc1ccc(Cn2nc(C)c(C(=O)OCC(=O)N3CC(C)CC(C)C3)c2Cl)cc1 (stereo not given),1,20
O=C(Nc1ncc([N+](=O)[O-])s1)c1cccn(Cc2cccc(C(F)(F)F)c2)c1=O,9,4
Clc1cccc(-c2nccn2CCc2cnc[nH]2)c1,-4,-5
CN1CCC2(CC1)CN(C(=O)Cc1ccc(Cl)c(Cl)c1)CCCN2C,12,-6
C(CCC1CCCO1)CNC1CSCCSC1 (stereo not given),10,-2
COC1=CC=C2[C@H]3Cc4ccc(OC)c5c4[C@@]2(CCN3C)[C@H]1O5,2,2
COc1cccc([C@@H]2CCN(Cc3cn(C)c4ccccc34)C[C@H]2O)c1,5,2
OC(c1ccccc1)(c1ccccc1)C1CCNCC1,1,-3
Cc1ccc(OP(N)(=O)Oc2ccc(C)cc2)cc1,10&15,17&13
CCN1CCN(C(=O)Cc2csc3nc(-c4ccc(F)cc4)cn23)CC1,4,1
N#Cc1c(N)[n+]([O-])c2ccccc2[n+]1[O-],18,16
c1cnc2c(c1)CN(Cc1cc3n(n1)CCNC3)CC2,14,14
Cc1cccc(-n2nc(-c3ccccc3)c3c2N(CC(=O)O)C(=O)CSC3c2cccc(Cl)c2)c1C (stereo not given),-1,-9

# Other structures follow.
SMILES,NPYLR7 ag,NPYLR7 ag max-min
Cc1ccc(-n2c(C)cc(/C=C3\C(=O)NC(=S)N(c4ccccc4)C3=O)c2C)cc1,12,7
CNC(=O)Oc1ccccc1OC(C)C,-5,-8
C[C@]12CCC3C(CC[C@]4(O)C[C@@H](O)CC[C@]34C=O)[C@@]1(O)CCC2C1=CC(=O)OC1 (stereo not given in full),2,-11
CO[C@H]1[C@H](O)[C@H](O[C@H]2CC[C@]3(C)C4CC[C@]5(C)C(C6=CC(=O)OC6)CC[C@]5(O)C4CC[C@@H]3C2)O[C@@H](C)[C@@H]1O (stereo not given in full),6&-7,3&-10
Nc1ccc(Sc2ccc(N)cc2)cc1,2,8
COc1ccc([C@@H]2CN(CC(=O)O)[C@@H]3C4CCN(CC4)[C@@H]32)cc1,1,1
CCC(C)C(=O)O[C@H]1[C@H](O)CC2[C@@](C)(C3CC4C=COC4O3)[C@H](C)C[C@H](OC(C)=O)[C@@]2(COC(C)=O)[C@@]12CO2 (stereo not given in full),-11,-17
COP(N)(=O)SC (stereo not given),-3,-9
Oc1ccc2c3c1OC1[C@@H](O)CC[C@@]4(O)[C@@H](C2)N(CC2CCC2)CC[C@]314 (stereo not given in full),-4&0,-2&-2
Cc1cc(C(=O)OCC(=O)NC(=O)NC(C)C)c(C)n1C1CC1,-1,4
CCC12CN3CCN(CC(C3)/C1=N/O)C2,2,1
CNC(C)Cc1ccc(O)cc1 (stereo not given),-21,-27
COc1cc2c(cc1OC)[C@@]13CCN4CC5=CCO[C@H]6CC(=O)N2[C@H]1[C@H]6[C@H]5C[C@H]43,-8,-10
CSc1ccc(C(=O)C2CCCN(CCN3CCCC3=O)C2)cc1 (stereo not given),-5,-5
CN(C)C(=O)Oc1ccc(-c2cn3cc(C(F)(F)F)ccc3n2)cc1,13,9
CC1CCCCN1C(=O)c1cc(N)cc(C(=O)C2CCCCN2C)c1 (stereo not given),0,15
COc1ccccc1C1SCC(=O)N(CC(=O)NCc2ccc(F)cc2)c2c1c(C(C)(C)C)nn2C (stereo not given),14,26
CCOC(C(=O)OCCN(C)C)(c1ccccc1)c1ccccc1,-12,-21
C[C@]12CC[C@H](OC3OC(O)C(O)C(O)C3O)C=C1CCC1C2CC[C@]2(C)[C@@H](c3ccc(=O)oc3)CC[C@]12O (stereo not given in full),-5,-10
CN(C)C(=O)Oc1cccc2c(OC(=O)N(C)C)cccc12,0,11
CCOc1cccc2c1cc(C(=O)O)n2CC(C)C,25,13
CC1(C(=O)N2C[C@@H](c3cccc(F)c3F)[C@@H]3[C@H]2C2CCN3CC2)CC1,7,7
Cc1cc(Cn2ccsc2=N)c2ncccc2c1,6,5
c1cnc2c(C3NCCc4[nH]cnc43)cnn2c1 (stereo not given),20,12
Cc1ccc(Cn2cccc(C(=O)Nc3ccccc3C#N)c2=O)cc1,29,23

# Reprinted from the part before: 2 compounds, then new ones.
SMILES,NPYLR7 ag,NPYLR7 ag max-min
c1cnc2c(C3NCCc4[nH]cnc43)cnn2c1 (stereo not given),20,12
Cc1ccc(Cn2cccc(C(=O)Nc3ccccc3C#N)c2=O)cc1,29,23
O=S(=O)(c1cc(F)ccc1F)N1CCN(CCOC(c2ccccc2)c2ccc(F)c(F)c2)CC1 (stereo not given),5,1
CC1=C2[C@@H]3OC(=O)[C@H](C)C3CC[C@@]2(C)C=CC1=O (stereo not given in full),-1,-3
CCCCN(C)C(=O)c1nn(Cc2ccc(S(=O)(=O)N3CCOCC3)cc2)c2ccccc12,8,21
COc1ccc(N(CC(O)CN2CCNCC2)S(=O)(=O)c2ccc(C)cc2)cc1 (stereo not given),-1,-5
CS(=O)(=O)c1ccc(CN2CCCC(C(=O)c3ccccn3)C2)cc1 (stereo not given),13,7
COc1cc([N+](=O)[O-])c(N)c([N+](=O)[O-])c1,7,3
C=C1N=C(c2cc3ccc(C)cc3[nH]c2=O)NO1,3,0
O=C1NC2(CCNCC2)Nc2ccc(Br)cc21,11,9
CC1(C)CC(=O)C2=C(C1)OC(=N)C(C(=O)OC(C)(C)C)C21C(=O)Nc2ccc(Br)cc21 (stereo not given),7,17
COP(=S)(OC)Oc1ccc([N+](=O)[O-])cc1,-6,-12
CCCCCCCCCCCCCC(=O)O[C@@H]1[C@@H](C)[C@@]2(O)[C@@H](C=C(CO)C[C@]3(O)C(=O)C(C)=C[C@@H]23)[C@@H]2C(C)(C)[C@]12OC(C)=O,-7,-12
CS(=O)(=O)N1CCN(CCOC(c2ccccc2)c2cccc(C(F)(F)F)c2)CC1 (stereo not given),-3,7
N#Cc1cccnc1N1CCNCC1,7,14
Cn1nc(-c2ccccc2)c2c1N(CC(=O)O)C(=O)CSC2c1ccc2c(c1)OCO2 (stereo not given),1,-3
CCCCCCn1c(=O)c(C(=O)Nc2nc(C34CC5CC(CC(C5)C3)C4)cs2)c(O)c2ccccc21,1,-7
CC(C)C(O)(C(=O)OC[C@@H]1CC[N+]2([O-])CCCC12)C(C)O (stereo not given in full),5,2
CCN(CC)C(=O)c1ccc(NCC(=O)N2CCc3ccccc3C2)cc1Cl,-1,-2
Cc1cc(C(=O)OCC(=O)Nc2ccccc2C(N)=O)c(C)n1C(C)C,7,4
CC(C)NC(=O)OC[C@H]1C[C@@H]2CCN1C[C@@H]2c1cc(-c2ccccc2)nn1C,-9,-15
Cc1ccc(CN(CCc2ccccc2)C(=O)CN(CCN2CCCCC2)C(=O)Cc2ccccc2)o1,-1,6
COc1cc2ccc(=O)oc2c2ccoc12,-9,-15
O=C(Cc1cccs1)N1CCN(C(c2ccccc2)c2ccc(Br)cc2)CC1 (stereo not given),24,30
C#CCNC(=O)c1nn(Cc2ccc(S(=O)(=O)N(CC)CC)cc2)c2ccccc12,8,12
CC12CCC(O)CC1CCC1C2CCC2(C)C(C(=O)O)CCC12 (stereo not given),9,6
Cc1ccc(C2=CCN(CC(=O)NCC(F)(F)F)CC2)cc1,12,5

# A section of the results above, for reference:
SMILES,NPYLR7 ag,NPYLR7 ag max-min
O=S(=O)(c1cc(F)ccc1F)N1CCN(CCOC(c2ccccc2)c2ccc(F)c(F)c2)CC1 (stereo not given),5,1
CC1=C2[C@@H]3OC(=O)[C@H](C)C3CC[C@@]2(C)C=CC1=O (stereo not given in full),-1,-3
CCCCN(C)C(=O)c1nn(Cc2ccc(S(=O)(=O)N3CCOCC3)cc2)c2ccccc12,8,21
COc1ccc(N(CC(O)CN2CCNCC2)S(=O)(=O)c2ccc(C)cc2)cc1 (stereo not given),-1,-5
CS(=O)(=O)c1ccc(CN2CCCC(C(=O)c3ccccn3)C2)cc1 (stereo not given),13,7
COc1cc([N+](=O)[O-])c(N)c([N+](=O)[O-])c1,7,3
C=C1N=C(c2cc3ccc(C)cc3[nH]c2=O)NO1,3,0

# Next part.
SMILES,NPYLR7 ag,NPYLR7 ag max-min
COC(=O)c1ccccc1NC(=O)N1CCN(CCOC(c2ccc(F)cc2)c2ccc(F)cc2)CC1,2,-3
Cc1cccc(Cc2cnc[nH]2)c1C,-4,-10
COc1ccc(CNC(=O)c2cnn(CCN3CCOCC3)c2)cc1OC,5,2
COC(=O)c1ccccc1NC(=O)N1CCN(CCOC(c2ccccc2)c2ccccc2)CC1,26,22
c1nc(N2CCCN3CCCC3C2)c2[nH]cnc2n1 (stereo not given),7,3
COc1ccc(CC2NCCc3cc(OC)c(OC)cc32)cc1OC (stereo not given),0,0
O=C(Nc1cc(F)ccc1F)N1CCN(CCOC(c2ccccc2)c2ccc(F)c(F)c2)CC1 (stereo not given),2,-1
Cc1cc(O)c2c(c1)OC(C)(C)C1=C2CC(C)CC1 (stereo not given),-13,-17
Cc1cc(CC(=O)N2CCCN(C)C3(CCN(C)CC3)C2)on1,-1&-5,-4&-10
CSc1ccccc1NC(=O)c1cccn(Cc2cccc(C)c2)c1=O,15,5
N#CC1(c2ccccc2)CCNCC1,-1,-3
c1cc2c(c(-c3nccc4occc34)c1)CCNC2,2,1
CCOC(=O)[C@H]1CN(C(=O)c2ccc(Cl)cc2)[C@]2(C)C(=O)Nc3ccccc3[C@H]12,33,32
CN1C(=O)C2(CCN(Cc3ccc(-c4ccn[nH]4)o3)CC2)c2ccccc21,3,0
C#CCN(C)S(=O)(=O)c1ccc(Cn2nc(C(=O)Nc3ccc(N4CCCCC4)cc3)c3ccccc32)cc1,8,13
Cc1[nH]c(=O)[nH]c(=O)c1CC(=O)N1CCN(C)C2(CCN(C)CC2)C1,18,8
CC(C)c1nccc(CN2CCN3CCN(C)CC3C2)n1 (stereo not given),3,2
CSCc1noc(CNC(C)Cc2ccccc2F)n1 (stereo not given),-4,-9
CC(C)(C)n1cc(C2=CCN(CCN3CCCCCC3)CC2)cn1,1,-1
Cc1nc(CNC(C)Cc2cccc(F)c2)cs1 (stereo not given),2,1
CN1C(=O)C(=Cc2ccccc2)C(=O)N(C)C1=O,2,7
Cc1ccccc1N1CCN(C2CCCN(C(=O)Cc3c(C)noc3C)C2)CC1 (stereo not given),-5,-5
COc1ccc(CC(C)N(C)C(=O)CN(C)C(=O)c2cccs2)cc1 (stereo not given),-4,-5
O=C1NCCN2CCN(C(=O)Cc3[nH]nc4ccccc34)CC12 (stereo not given),12,9
CON(C)C(=O)c1c2c(nc3ccccc13)CCN(C)C2,2,18

# Next section:
SMILES,NPYLR7 ag,NPYLR7 ag max-min
CCOc1ccc2ccccc2c1C=C1C(=O)NC(=O)NC1=O,-11,-20
OCC(CO)N1CCC2(CCNCC2)CC1,-5,-12
CCCCn1c(CN2CC=C(c3ccccc3)CC2)cnc1S(=O)(=O)CC,6,5
CCCC1=C(C(=O)OCC)C2(C(=O)Nc3ccccc32)C(C#N)C(=N)O1 (stereo not given),-6,-13
O=C(O)COc1ccc(Cl)cc1Cl,-17,-22
CC(C)n1[nH]c(=O)c2c1NC(=O)CSC2c1cccc([N+](=O)[O-])c1 (stereo not given),-17,-20
O=c1cccc2n1C[C@H]1CNCC2C1,-4,-18
COC(=O)c1ccc(NC(=O)c2cccn(Cc3ccc(C(F)(F)F)cc3)c2=O)cc1,14,7
CC1=[N+]([O-])C2(CC(C)(C)NC(C)(C)C2)NC1(C)C,-12,-17
CCOC(=O)C1C(=N)Oc2cc(C)n(C)c(=O)c2C12C(=O)N(C)c1ccccc12 (stereo not given),-1,-6

# 3 compounds out of the list, ordered by molecular weight, rising:
SMILES,NPYLR7 ag,NPYLR7 ag max-min
Cc1cc(Cn2ccsc2=N)c2ncccc2c1,6,5
COc1cc(C(=O)c2cc3cc(Cl)ccc3o2)cc(OC)c1OC,5,1
Cc1ccc(CN(CCc2ccccc2)C(=O)CN(CCN2CCCCC2)C(=O)Cc2ccccc2)o1,-1,6

# Molecules from the list above containing a COOH group (6):
SMILES,NPYLR7 ag,NPYLR7 ag max-min
Cc1cccc(-n2nc(-c3ccccc3)c3c2N(CC(=O)O)C(=O)CSC3c2cccc(Cl)c2)c1C (stereo not given),-1,-9
COc1ccc([C@@H]2CN(CC(=O)O)[C@@H]3C4CCN(CC4)[C@@H]32)cc1,1,1
CCOc1cccc2c1cc(C(=O)O)n2CC(C)C,25,13
Cn1nc(-c2ccccc2)c2c1N(CC(=O)O)C(=O)CSC2c1ccc2c(c1)OCO2 (stereo not given),1,-3
CC12CCC(O)CC1CCC1C2CCC2(C)C(C(=O)O)CCC12 (stereo not given),9,6
O=C(O)COc1ccc(Cl)cc1Cl,-17,-22

# Source: PubChem
